Screening results as filed in PubChem BioAssay.
Vaccinia stage – Vaccinia orthopox stage-specific inhibition. AID 1053133. 89,000 compounds, 0.01% hits. activity change (mCherry), % (concentration not given with the values). Vaccinia-infected cells, mCherry/Venus stage reporter fluorescence; hits give low values; some inactives read as strong as hits;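 active means mCherry past -33% and 40 or more points under the early reporter, replicates agreeing; inconclusive means past -33% without that gap or agreement; tested in A549 cells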;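 further: scaled between vehicle wells and reference inhibitor wells; 23 nL library stock went into each well; one replicate is shown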
Vaccinia stage Venus – also measured in Vaccinia stage; calls as there; activity change (Venus), %; measured here: Venus reporter, other viral stage;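 negative = less Venus signal; first of two replicates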
* = called active by the depositor.

Screening C[C@@H]1CN([C@H](C)CO)S(=O)(=O)c2ccc(C#CC3(O)CCCC3)cc2O[C@H]1CN(C)C(=O)Nc1ccc(F)cc1 returned Vaccinia stage 3 and Vaccinia stage Venus 2.
Screening C[C@H]1CN([C@@H](C)CO)C(=O)c2cc(-c3ccncc3)cnc2O[C@H]1CN(C)S(=O)(=O)c1ccccc1 returned Vaccinia stage -10 and Vaccinia stage Venus -1.
CO[C@H]1CN(C)C(=O)c2cc(NC(=O)C3CCOCC3)ccc2OC[C@@H](C)N(C)C[C@@H]1C was read as Vaccinia stage 13 and Vaccinia stage Venus 10.
`Cc1ccccc1-c1ccc2c(c1)O[C@H](CN(C)C(=O)Nc1ccc(C(F)(F)F)cc1)[C@H](C)CN([C@H](C)CO)S2(=O)=O` gave Vaccinia stage inconclusive.
`CN(C)CC#Cc1ccc([C@H]2[C@H](CO)N3CCCCN(CC4CC4)C[C@@H]23)cc1` gave Vaccinia stage 19 and Vaccinia stage Venus 6.
C[C@H]1CN([C@@H](C)CO)C(=O)Cc2cc(NC(=O)C3CCCCC3)ccc2O[C@@H]1CN(C)C(=O)Nc1cccc2ccccc12 was read as Vaccinia stage 13 and Vaccinia stage Venus 14.
COc1ccc(S(=O)(=O)Nc2ccc3c(c2)CC(=O)N([C@H](C)CO)C[C@@H](C)[C@@H](CN(C)C(=O)Nc2ccc4c(c2)OCO4)O3)cc1 was read as Vaccinia stage 14 and Vaccinia stage Venus 8.
CO[C@@H](CN(C)C(=O)c1cc(Cl)cc(Cl)c1)[C@@H](C)CN(C(=O)Nc1ccc(F)cc1)[C@H](C)CO was read as Vaccinia stage -16 and Vaccinia stage Venus -16.
`C[C@@H]1CN([C@H](C)CO)C(=O)c2cc(C3=CCCC3)cnc2O[C@H]1CN(C)C(=O)CN(C)C` gave Vaccinia stage 35 and Vaccinia stage Venus 11.
CC(=O)[C@]12O[C@]3(COC[C@H](c4ccccc4)N3C1=O)[C@@H]1C(=O)N(C)C(=O)[C@@H]12 was read as Vaccinia stage 13 and Vaccinia stage Venus 16.
`COc1ccc(-c2ccc([C@@H]3[C@@H](CO)N(C(=O)C4CCC4)[C@H]3C#N)cc2)cc1` gave Vaccinia stage -19 and Vaccinia stage Venus -15.
CO[C@@H]1CN(C)C(=O)c2ccc(NC(=O)C3CC3)cc2OC[C@@H](C)N(C(=O)Nc2ccccc2F)C[C@H]1C was read as Vaccinia stage 8 and Vaccinia stage Venus 8.

Structural class: the compounds so far containing an aryl methoxy group
COc1ccc(S(=O)(=O)Nc2ccc3c(c2)CC(=O)N([C@H](C)CO)C[C@@H](C)[C@@H](CN(C)C(=O)Nc2ccc4c(c2)OCO4)O3)cc1 was read as Vaccinia stage 14 and Vaccinia stage Venus 8.
`COc1ccc(-c2ccc([C@@H]3[C@@H](CO)N(C(=O)C4CCC4)[C@H]3C#N)cc2)cc1` gave Vaccinia stage -19 and Vaccinia stage Venus -15.

Next part.
`C[C@@H]1CN([C@H](C)CO)C(=O)Cc2cc(NS(=O)(=O)c3ccc(F)cc3)ccc2O[C@@H]1CN(C)C` gave Vaccinia stage 15 and Vaccinia stage Venus 21.
Screening CNC[C@H]1Oc2ccc(NC(=O)Nc3ccc(F)cc3)cc2CC(=O)N([C@H](C)CO)C[C@H]1C returned Vaccinia stage 6 and Vaccinia stage Venus -3.
For CC(C)C#Cc1ccc2c(c1)O[C@H](CN(C)Cc1cccnc1)[C@@H](C)CN([C@@H](C)CO)S2(=O)=O the results were Vaccinia stage inconclusive.
For C[C@@H]1CCCCO[C@@H](CN(C)C(=O)Nc2ccc3c(c2)OCO3)[C@H](C)CN([C@@H](C)CO)C(=O)c2cc(NC(=O)Nc3ccc(F)cc3)ccc2O1 the results were Vaccinia stage 0 and Vaccinia stage Venus -3.
For C[C@@H]1CN([C@@H](C)CO)C(=O)Cc2cc(NC(=O)C3CCCCC3)ccc2O[C@H]1CN(C)Cc1ccncc1 the results were Vaccinia stage -3 and Vaccinia stage Venus 1.
`COc1ccc(NC(=O)Nc2cccc3c2O[C@H](CN(C)S(C)(=O)=O)[C@H](C)CN([C@@H](C)CO)C3=O)cc1` gave Vaccinia stage 17 and Vaccinia stage Venus 16.
Screening C[C@H](CO)N1C[C@H](C)[C@H](CN(C)CC2CCCCC2)Oc2ccc(NC(=O)Nc3cccc4ccccc34)cc2CC1=O returned Vaccinia stage -19 and Vaccinia stage Venus -5.
Screening COCC(=O)N1C[C@@H](C)[C@@H](OC)CN(C)C(=O)c2cc(NC(=O)c3ccc(F)cc3)ccc2OC[C@@H]1C returned Vaccinia stage -1 and Vaccinia stage Venus 3.
`CC(C)CC#Cc1ccc2c(c1)O[C@@H](CN(C)Cc1ccccn1)[C@@H](C)CN([C@@H](C)CO)S2(=O)=O` gave Vaccinia stage inconclusive.
Screening CO[C@@H](CN(C)C(=O)c1ccccc1F)[C@@H](C)CN([C@@H](C)CO)S(=O)(=O)c1ccc(C)cc1 returned Vaccinia stage 4 and Vaccinia stage Venus 9.
O=C(C[C@@H]1CC[C@H](NC(=O)CCN2CCCCC2)[C@@H](CO)O1)NCc1ccc(Cl)c(Cl)c1 was read as Vaccinia stage -3 and Vaccinia stage Venus 4.
Screening COc1ccccc1CNC(=O)C[C@@H]1CC[C@H](NC(=O)CN(C)C)[C@@H](CO)O1 returned Vaccinia stage 5 and Vaccinia stage Venus 10.
Screening C/C=C/c1cnc2c(c1)C(=O)N([C@H](C)CO)C[C@H](C)[C@H](CN(C)C(=O)CN1CCOCC1)O2 returned Vaccinia stage 7 and Vaccinia stage Venus 8.
`CN(C)C(=O)C[C@@H]1CC[C@@H]2[C@H](COC[C@@H](O)CN2C(=O)C2CCOCC2)O1` gave Vaccinia stage -7 and Vaccinia stage Venus -5.
For COC(=O)C[C@@H]1C=C[C@H](NS(=O)(=O)c2ccc(OC)cc2)[C@H](CO)O1 the results were Vaccinia stage -1 and Vaccinia stage Venus 5.
`CCCNC(=O)C[C@H]1CC[C@@H]2[C@H](COc3ccc(NC(=O)c4cccc(F)c4)cc3C(=O)N2C)O1` gave Vaccinia stage 6 and Vaccinia stage Venus 4.
`Cc1noc(C)c1S(=O)(=O)Nc1ccc2c(c1)C(=O)N([C@H](C)CO)C[C@@H](C)[C@H](CN(C)Cc1ccccc1)O2` gave Vaccinia stage 6 and Vaccinia stage Venus 2.
`COc1ccccc1S(=O)(=O)N[C@@H]1CC[C@@H](CCNC(=O)C2CCC2)O[C@H]1CO` gave Vaccinia stage 10 and Vaccinia stage Venus 6.
Screening COc1ccc(S(=O)(=O)Nc2ccc3c(c2)C(=O)N([C@@H](C)CO)C[C@H](C)[C@@H](CN(C)Cc2ccc(C(F)(F)F)cc2)OCCCC[C@H](C)O3)cc1 returned Vaccinia stage inconclusive.
COCC#Cc1ccc2c(c1)O[C@H](CN(C)S(C)(=O)=O)[C@@H](C)CN([C@@H](C)CO)S2(=O)=O was read as Vaccinia stage -4 and Vaccinia stage Venus -5.
Screening C[C@@H]1CN([C@H](C)CO)C(=O)c2cc(NC(=O)Nc3ccccc3)ccc2O[C@@H](C)CCCCO[C@@H]1CN(C)C(=O)Cc1ccccc1 returned Vaccinia stage 17 and Vaccinia stage Venus 6.
CCN(C[C@H]1N[C@H](CO)[C@@H]1c1ccc(-c2cccc(C#N)c2)cc1)C(C)=O was read as Vaccinia stage -5 and Vaccinia stage Venus -1.
For C[C@H]1CN([C@@H](C)CO)C(=O)c2cccc(NS(=O)(=O)c3cccs3)c2O[C@H]1CN(C)S(=O)(=O)c1cn(C)cn1 the results were Vaccinia stage 19 and Vaccinia stage Venus 12.
N#C[C@H]1[C@@H](c2ccc(-c3cccc(F)c3)cc2)[C@@H](CO)N1C(=O)NC1CCCC1 was read as Vaccinia stage -1 and Vaccinia stage Venus -3.
`Cc1noc(C)c1NC(=O)N[C@@H]1CC[C@H](CC(=O)Nc2ccccc2)O[C@@H]1CO` gave Vaccinia stage 9 and Vaccinia stage Venus 5.
O=C(C1CCC1)N1CC2(C1)[C@@H](c1ccccc1)[C@@H](CO)N2C(=O)NC1CCCC1 was read as Vaccinia stage -5 and Vaccinia stage Venus -6.
For C[C@@H]1CN([C@H](C)CO)C(=O)c2cc(NC(=O)Nc3ccc(C(F)(F)F)cc3)ccc2O[C@@H](C)CCCCO[C@@H]1CN(C)S(=O)(=O)c1cccs1 the results were Vaccinia stage 12 and Vaccinia stage Venus 25.
C[C@@H]1CN([C@@H](C)CO)C(=O)c2cc(NS(C)(=O)=O)ccc2O[C@@H](C)CCCCO[C@H]1CN(C)C(=O)Cc1ccccc1 was read as Vaccinia stage -5 and Vaccinia stage Venus -4.
`O=C(C[C@@H]1CC[C@H]2[C@@H](COC[C@H](O)CN2Cc2nccs2)O1)NCc1ccc(F)cc1` gave Vaccinia stage 2 and Vaccinia stage Venus 1.
For COc1ccc(-c2ccc3c(c2)O[C@H](CN(C)C(=O)c2ccccc2F)[C@@H](C)CN([C@H](C)CO)S3(=O)=O)cc1 the results were Vaccinia stage -24 and Vaccinia stage Venus -18.
For Cc1ccccc1S(=O)(=O)N1CCCCN2[C@H](C1)[C@@H](c1ccc(-c3cccc(F)c3)cc1)[C@@H]2CO the results were Vaccinia stage inconclusive.
`C[C@H]1CN([C@@H](C)CO)S(=O)(=O)c2ccc(C#CCN(C)C)cc2O[C@H]1CN(C)CC1CC1` gave Vaccinia stage 16 and Vaccinia stage Venus 19.
Screening C[C@@H]1CN([C@@H](C)CO)C(=O)c2cc(NC(=O)Cn3cnnn3)ccc2O[C@@H]1CN(C)Cc1ccc(C(=O)O)cc1 returned Vaccinia stage -1 and Vaccinia stage Venus 2.
For CCS(=O)(=O)Nc1ccc2c(c1)C(=O)N(C)[C@H]1CC[C@H](CC(=O)NCCCN3CCOCC3)O[C@H]1CO2 the results were Vaccinia stage 6 and Vaccinia stage Venus 19.
`CC=Cc1ccc2n(c1=O)C[C@H]1[C@H](CO)[C@@H](C(=O)NCCc3ccncc3)[C@@H]2N1CCc1ccccc1` (mixture of isomers) gave Vaccinia stage 23 and Vaccinia stage Venus 9.
Cc1ccc(S(=O)(=O)Nc2cccc3c2O[C@@H](CN(C)S(=O)(=O)c2cccs2)[C@@H](C)CN([C@@H](C)CO)C3=O)cc1 was read as Vaccinia stage -3 and Vaccinia stage Venus -6.
For COc1ccc(NC(=O)Nc2ccc3c(c2)C(=O)N([C@H](C)CO)C[C@@H](C)[C@@H](CN(C)S(=O)(=O)c2c(C)noc2C)OCCCC[C@H](C)O3)cc1 the results were Vaccinia stage -2 and Vaccinia stage Venus -4.
`COCC(=O)N1CCCCN2[C@H](C1)[C@H](c1ccc(-c3ccc(C)cc3)cc1)[C@@H]2CO` gave Vaccinia stage inconclusive.
`O=C(NCC[C@@H]1CC[C@H](NS(=O)(=O)Cc2ccccc2)[C@@H](CO)O1)C1CCCCC1` gave Vaccinia stage 0 and Vaccinia stage Venus 3.
CN1c2ccc(Br)cc2[C@@H]2[C@@H](CCN2C(=O)C2CCC2)[C@H]1CO was read as Vaccinia stage -8 and Vaccinia stage Venus -7.
For CO[C@H]1CN(C)C(=O)c2ccc(NC(C)=O)cc2OC[C@@H](C)N(CCc2ccccc2)C[C@H]1C the results were Vaccinia stage -5 and Vaccinia stage Venus 0.
C[C@@H]1CN([C@H](C)CO)C(=O)c2cccc(NC(=O)C3CCOCC3)c2O[C@@H]1CN(C)S(=O)(=O)c1ccccc1 was read as Vaccinia stage 15 and Vaccinia stage Venus 9.
`CC(C)NC(=O)N(C)C[C@@H]1OCCCC[C@H](C)Oc2ccc(NC(=O)Nc3ccc(C(F)(F)F)cc3)cc2C(=O)N([C@@H](C)CO)C[C@H]1C` gave Vaccinia stage -16 and Vaccinia stage Venus -7.
`CO[C@@H]1CN(C)C(=O)c2cc(NC(=O)NC(C)C)ccc2OC[C@@H](C)N(C(=O)NC(C)C)C[C@H]1C` gave Vaccinia stage 2 and Vaccinia stage Venus -3.
CCC(=O)N1CC(=O)N2[C@H](C1)[C@H](c1ccc(-c3ccc(C#N)cc3)cc1)[C@@H]2CO was read as Vaccinia stage -3 and Vaccinia stage Venus -4.
CC(C)CC#Cc1ccc2c(c1)O[C@@H](CN(C)CC1CC1)[C@@H](C)CN([C@H](C)CO)S2(=O)=O was read as Vaccinia stage -32 and Vaccinia stage Venus -26.
O=C(C[C@@H]1CC[C@H]2[C@@H](COC[C@H](O)CN2C(=O)c2cnccn2)O1)NCc1ccccc1 was read as Vaccinia stage 11 and Vaccinia stage Venus 3.
Screening O=C(c1cccnc1)N1CC(=O)N2[C@@H](CO)[C@@H](c3ccc(-c4ccccc4F)cc3)[C@@H]2C1 returned Vaccinia stage -7 and Vaccinia stage Venus 1.
O=C(N[C@@H]1CC[C@H](CCNS(=O)(=O)c2ccccc2)O[C@H]1CO)c1cccc(F)c1 was read as Vaccinia stage -2 and Vaccinia stage Venus -4.
`CN1C(=O)c2cc(NC(=O)c3ccc(F)cc3)ccc2OC[C@H]2O[C@@H](CC(=O)NCC3CC3)CC[C@@H]21` gave Vaccinia stage 3 and Vaccinia stage Venus 12.

Three structures already listed, arranged by SMILES length, ascending:
O=C(N[C@@H]1CC[C@H](CCNS(=O)(=O)c2ccccc2)O[C@H]1CO)c1cccc(F)c1 was read as Vaccinia stage -2 and Vaccinia stage Venus -4.
Screening O=C(c1cccnc1)N1CC(=O)N2[C@@H](CO)[C@@H](c3ccc(-c4ccccc4F)cc3)[C@@H]2C1 returned Vaccinia stage -7 and Vaccinia stage Venus 1.
`CN1C(=O)c2cc(NC(=O)c3ccc(F)cc3)ccc2OC[C@H]2O[C@@H](CC(=O)NCC3CC3)CC[C@@H]21` gave Vaccinia stage 3 and Vaccinia stage Venus 12.

Not all compounds are listed; count on the stated rates, not on these rows.
